nsP2pro primary: CHIKV nsP2 protease inhibition, primary qHTS; FRET peptide cleavage, nsP2pro, fluorescence 1 h; Potency, µM (titrated, usually from 24.9 µM), for inactives: top-dose activity change, negative = inhibition, most hits filed as inhibitors; 31,000 tested, 1.1% active; AID 1964107; active means well fitted inhibition curve with a large enough effect; inconclusive means small, poorly fitted or top-dose-only effect; inactive means no such curve, though single readings can be large or run the other way; further: nearly all actives have a fitted effect of over 60% in size; a reference inhibitor and vehicle were the controls
Active calls of the source: *; i = inactive; ? = inconclusive; [ ] = dose if it differs, or a comment. On the % scale 0 is the no-effect control and ±100 the full control effect; potency means the concentration at half of the fitted maximal effect. Only part of the results is shown (hit frequency here may not be typical).

SMILES	nsP2pro primary
CCN1c2cc(C(=O)Nc3ccccc3OC)ccc2C(=O)N2CCCCCC21 (configuration not stated)	-1.2%
COC(=O)c1c(NC(=O)CCCOc2cccc(C)c2)sc2c1C(C(=O)OC)CC2 (configuration not stated)	1.9µM*
O=C(CCS(=O)(=O)c1cc2c3c(c1)CCN3C(=O)CC2)NCc1ccc(F)cc1	-25.8%
CC(C)(C(=O)O)C1CCOCC1	2.1%
COc1c(F)ccc(C(=O)N2CCC3(CCCNC3)C2)c1F (configuration not stated)	2.9%
Cc1cccc(CN2CCCC(C(=O)Nc3cccc(-n4cccn4)c3)C2)n1 (configuration not stated)	i
Cc1nc(CCNS(=O)(=O)c2c(C)nn(C)c2C)no1	1.9%
COc1cc(O[C@@H]2O[C@H](CO)[C@@H](O)[C@H](O)[C@H]2O)c(CCC(=O)OC[C@H]2O[C@@H](Oc3cc(OC)c(C4OC(=O)C(C)(O)C4O)cc3CCC(=O)O)[C@H](O)[C@@H](O)[C@@H]2O)cc1C1OC(=O)C(C)(O)C1O (some centres not stated)	-15.8%[5.1 µM]
Cc1cc(C(C)Nc2ccccc2)c2nc(N3CCOCC3)cc(=O)n2c1 (configuration not stated)	-1.3%
Cc1cc(-c2nc(Nc3ccc(F)c(F)c3)c3ccccc3n2)ccn1	-1.6%
COc1ccc(-c2nc3c(c(=O)[nH]2)CCN(S(=O)(=O)C2CC2)C3)cc1	0.5%
CCN(CC)S(=O)(=O)c1ccc2c(c1)nc(CN(C)C(=O)Nc1cccc(Cl)c1)n2C	2.6%
c1ccc(-n2ncc3c(NC4CCCC4)ncnc32)cc1	?
COc1ccnc(NC(=S)N2CCN(c3ccc(Cl)cc3Cl)CC2)c1	3.5%
O=C(NCC(c1ccco1)S(=O)(=O)c1cccs1)c1ccc(F)cc1 (configuration not stated)	-9.3%
COc1cc(F)c(S(=O)(=O)N2CCCN(S(=O)(=O)c3cccc(NC(C)=O)c3)CC2)c(F)c1	0.0%
COc1ccccc1NC(=O)C1=C(C)Nc2ncnn2C1c1ccc[nH]1 (configuration not stated)	8.91µM*
COC(=O)Cc1c(C)nc2nc(NCc3ccc(Br)cc3)[nH]n2c1=O	-10.1%
Cc1c(Cl)cccc1-n1ncc(C(=O)N2CCC(C)CC2)c1C1CCN(C(=O)OC(C)(C)C)CC1	-20.6%
CCN(Cc1ccncc1)C(=O)CC1C(=O)NCCN1CCc1ccccc1 (configuration not stated)	-16.2%
Cc1noc(C)c1[S+](=O)([O-])N1CCc2nc(-c3ccccc3)nc(-c3ccc(Cl)cc3)c2C1	-4.4%
CCCCC(=O)OCC(=O)[C@]1(O)Cc2c(O)c3c(c(O)c2[C@@H](O[C@H]2C[C@H](NC(=O)C(F)(F)F)[C@H](O)[C@H](C)O2)C1)C(=O)c1c(OC)cccc1C3=O	40.6%[activator]
COc1ccc(-c2cc(C(=O)NCCc3ccc(OC)c(OC)c3)c3c(-c4ccc(F)cc4)[nH]nc3n2)cc1	-18.0%
COc1ccc(-c2nnc3n2N=C(c2c(OC)cccc2OC)CS3)cc1OC	4.7%
COc1cccc(CN2CCC3(CC2)COc2ccccc2CN3)c1	0.7%

Given in markdown: three of the compounds above.
| molecule | nsP2pro primary |
| --- | --- |
| Cc1nc(CCNS(=O)(=O)c2c(C)nn(C)c2C)no1 | 1.9% |
| COC(=O)Cc1c(C)nc2nc(NCc3ccc(Br)cc3)[nH]n2c1=O | -10.1% |
| CCN(CC)S(=O)(=O)c1ccc2c(c1)nc(CN(C)C(=O)Nc1cccc(Cl)c1)n2C | 2.6% |

Ordered by heavy-atom count (lowest first): some entries from above.
SMILES	nsP2pro primary
CC(C)(C(=O)O)C1CCOCC1	2.1%
COc1cccc(CN2CCC3(CC2)COc2ccccc2CN3)c1	0.7%
COc1ccccc1NC(=O)C1=C(C)Nc2ncnn2C1c1ccc[nH]1 (configuration not stated)	8.91µM*
Cc1cccc(CN2CCCC(C(=O)Nc3cccc(-n4cccn4)c3)C2)n1 (configuration not stated)	i
CCN1c2cc(C(=O)Nc3ccccc3OC)ccc2C(=O)N2CCCCCC21 (configuration not stated)	-1.2%
Cc1noc(C)c1[S+](=O)([O-])N1CCc2nc(-c3ccccc3)nc(-c3ccc(Cl)cc3)c2C1	-4.4%

Next records follow:
SMILES	nsP2pro primary
O=C(Cn1c(-c2cccs2)cc2cc(Cl)ccc21)N1CCCCC1	-23.1%
COc1c2cc(c(O)c1OC)CCCCC(O)CCc1ccc(O)c-2c1 (configuration not stated)	-1.2%
Cc1ccccc1C(=O)NC1(C(F)(F)F)N=C(c2ccccc2)N(C2CCCCC2)C1=O (configuration not stated)	-18.3%
COCCN1CC(c2n[nH]c(C3CCOCC3)n2)CCC1=O (configuration not stated)	-16.3%
COC(=O)c1ccccc1NC(=O)CCCn1nc(C)c2c(C)n(-c3ccccc3)nc2c1=O	-10.3%
COc1ccc(OC2OC(CO[C@@H]3O[C@@H](C)[C@H](O)[C@@H](O)[C@H]3O)C(O)C(O)C2O)cc1OC (some centres not stated)	58.8%[activator][10 µM]
Cc1ccc(NS(=O)(=O)c2ccc3nc(-c4ccccc4)[nH]c3c2)cc1Cl	21.5%
Cc1ccc(CNc2ncnc3ccc(-c4ccc(CO)o4)cc23)o1	?
Cc1ccc(C)c(NC(=O)Cn2ncc3c([nH]c4ccccc43)c2=O)c1	-5.2%
N#Cc1ccccc1Cn1cnc2nc3c(cc2c1=O)CCCC3	-7.2%
Nc1ccc(-c2ccc3ncc4ccc(=O)n(-c5cccc(C(F)(F)F)c5)c4c3c2)cn1	38.1%[activator]
Cc1ccc(S(=O)(=O)Nc2ccncc2C(=O)Nc2nc(-c3ccccc3)cs2)cc1	3.9%
Cc1cnc(C2CC2)n1C1CCNCC1	i
CC1CCCC(O)CC(=O)Cc2cc(O)cc(O)c2C(=O)O1 (configuration not stated)	?
Cn1nc(-c2cccc(F)c2)c(N2CCCC2)c1NC(=O)NCc1ccccc1	-3.0%
COc1cc(-c2noc(-c3ccc(N4CCOCC4)c([N+](=O)[O-])c3)n2)cc(OC)c1OC	-25.4%
CCN(CC)CCOC(=O)c1ccc(N)cc1Cl	1.1%
COc1cccc(CC(=O)N2CC[C@H]3C(=O)NCCCCCN(Cc4cccnc4)[C@@H]3C2)c1	i
Cc1cc2oc(=O)c(CC(=O)O)c(C)c2c2occ(-c3ccccc3)c12	-7.7%
COc1ccc(N2C(=O)CSC23C(=O)N(CC(=O)NCCc2ccccc2)c2ccccc23)cc1 (configuration not stated)	-7.1%
N/C(=N\c1nnc(-c2ccncc2)s1)Nc1ccc(Cl)c(Cl)c1	-1.3%
Cc1ncc2c(n1)C[C@@H]1CC[C@H]2N1S(=O)(=O)Cc1ccccc1	-6.0%
O=C1C2=C(CN1c1ccccc1)NC(Nc1nc3ccccc3o1)=NC2c1ccccc1Cl (configuration not stated)	1.0%
N#C/C(=C\c1ccc(O)c(O)c1)C(=O)NCCCNC(=O)/C(C#N)=C/c1ccc(O)c(O)c1	21.1%
O=C(OC[C@H]1O[C@H](O[C@]2(CO)O[C@H](CO)[C@@H](O)[C@@H]2O)[C@H](O)[C@@H](O)[C@@H]1O)c1ccc(O)cc1	?
Next compounds follow:
SMILES	nsP2pro primary
O=C(Cn1c2ccccc2c2nc3n(c(=O)c21)CCS3)N1CCCC1	4.5%
COc1ccc(NC(=O)c2sc3nc4c(cc3c2N)CN(Cc2ccccc2)CC4)c(OC)c1	-0.9%
O=C(Nc1ccccc1)N1CCN(c2nc(-c3ccccc3)ns2)CC1	2.5%
Cc1ccc(S(=O)(=O)N2CCC3(CC2)SCC(=O)N3Cc2ccco2)cc1	?
Cc1cc(O)cc(Oc2cc(C)c(C(=O)O)c(O)c2)c1	-14.5%
CCOc1ccccc1C(=O)Nc1ccc(S(=O)(=O)Nc2onc(C)c2C)cc1	?
CC(=O)O[C@H]1CC[C@H](C)[C@@]2(C)[C@H](OC(C)=O)c3c(C)coc3C(=O)[C@H]12	-15.2%
CCN(CCCNC(=O)c1cc2c(=O)n(CC)c3ccccc3c2s1)c1cccc(C)c1	-5.9%
Cc1cc2c(s1)c1cnn(Cc3ccc(F)c(C)c3)c(=O)c1n2C	0.7%
Cc1ccc(C)c(SC2=N[S+](=O)([O-])c3cc(C(=O)Nc4ccc5ncccc5c4)ccc32)c1	-2.7%
Nc1nnc2c(n1)[nH]c1ccccc12	1.7%
CC1(C(=O)Nc2ccc(F)nc2)CCCN1c1nc(Nc2cc(C3CC3)[nH]n2)c2cccn2n1 (configuration not stated)	-7.4%
CC[C@H]1OC(=O)[C@H](C)[C@@H](O[C@H]2C[C@@](C)(OC)[C@@H](O)[C@H](C)O2)[C@H](C)[C@@H](O[C@@H]2O[C@H](C)C[C@H](N(C)C)[C@H]2O)[C@@](C)(O)C[C@@H](C)[C@@H]2N[C@@H](COCCOC)OC([C@H]2C)[C@]1(C)O	248.1%[activator]
Cc1c(P(=S)(c2ccccc2)c2ccccc2)[n+]2ccccc2n1Cc1ccccc1	3.4%
Cc1nn(C)cc1C(=O)N1C[C@@H](CO)[C@H](c2ccncc2)C1	i
CCOC(=O)c1ccccc1NS(=O)(=O)c1ccc(N2CCCCS2(=O)=O)cc1	-20.4%
CC(Nc1oc(-c2ccc(COc3ccc(Cl)cc3)o2)nc1C#N)c1ccccc1 (configuration not stated)	-25.1%
COc1ccc(C(=O)N2CCC(Cn3c(C)cnc3C3CCC3)CC2)c(OC)c1	-2.7%
O=C(N1CC(Oc2ccc(-c3noc(-c4ccccc4)n3)cc2)C1)C1(c2ccccc2)CC1	i
COCCCn1c(=O)c2sccc2n2c(CCCC(=O)NCc3ccc(F)cc3)nnc12	110.4%[activator]
CC(=O)Nc1c(C)nn(-c2ccccc2)c1N1CCC(C(=O)NCc2cccc(Cl)c2)CC1	-19.9%
Cc1cccc(C(=O)OCc2cc(=O)n3nc(-c4cccs4)sc3n2)c1	0.2%
COc1ccc(CCC(=O)N2CCOCCNC(=O)CC2)cc1	3.3%
O=C(Nc1cccnc1)N1CCC(Cc2cccc(Oc3ccc(C(F)(F)F)cn3)c2)CC1	31.2%
CC(=O)OCC(=O)[C@@]1(O)[C@H](C)C[C@H]2[C@@H]3C=C(C)C4=Cc5c(cnn5-c5ccccc5)C[C@]4(C)[C@@H]3[C@@H](O)C[C@@]21C	i
The results go on.
SMILES	nsP2pro primary
CCCCOc1ccc(C(=O)CCN2CCCCC2)cc1	2.21µM*
O=C(O)CNc1cccc(-c2nn3c(=O)cc(N4CCNCC4)nc3s2)c1	i
CCO[C@H]1CN(C2CCC(O)(c3ccc4c(c3)OCO4)CC2)C[C@@H]1NC(=O)CNC(=O)c1cccc(C(F)(F)F)c1 (some centres not stated)	-8.7%
Cc1ccccc1Cn1nnc2c(=O)[nH]c(C3CCCN(C(=O)c4ccc(C(C)(C)C)cc4)C3)nc21 (configuration not stated)	21.3%
COc1ccccc1OCc1nc(C#N)c(NCc2ccc(C)cc2)o1	-17.7%
CC(O)/C=C/C1(O)C(C)C(O[C@@H]2O[C@H](CO)[C@@H](O)[C@H](O)[C@H]2O)C(O)CC1(C)C (some centres not stated)	-2.4%[10 µM]
COc1ccccc1NC(=O)c1sc2cccc(Cl)c2c1Cl	-20.7%
CCOCCOC1CCN(C(=O)c2cccc3[nH]ccc23)CC1	-3.6%
C=CC(C)(O)CC/C=C(\C)C(=O)OC1CC2(C(=O)O)CCC3(C)C(=CCC4C5(C)CCC(OC6OC(COC7OCC(O)C(O)C7O)C(O)C(OC7OCC(O)C(O)C7O)C6OC6OC(CO)C(O)C(O)C6OC6OCC(O)C(O)C6O)C(C)(C)C5CCC43C)C2CC1(C)C (configuration not stated)	11.8%[5.1 µM]
COc1ccc(C2=Nn3c(nnc3-c3ccccc3F)SC2)cc1OC1CCCC1	i
CCCN(CCC)CCCNC(=O)C1CCCN(Cc2nc(-c3ccc(Cl)cc3)oc2C)C1 (configuration not stated)	-2.8%
CC(=O)c1c(C)oc2c1cc(NS(=O)(=O)c1c(C)cc(C)cc1C)c1ccccc12	-26.5%
CC(C)(O)c1ccn2c(-c3ccc(F)c(-c4ccc(F)cc4C#N)c3)cnc2c1F	-1.8%
Cc1nc(C(=O)N2CC[C@H](NS(=O)(=O)c3cn(C)cn3)C[C@H]2C(=O)N[C@H](Cc2ccccc2)C(N)=O)cs1	i
Cc1ccc(C(C)(C)C)c(OCC(=O)NCCc2nc3ccccc3[nH]2)c1	19.5%
COC1C(O)C(OC2CCC3(C=O)C(CCC4C3CCC3(C)C(C5=CC(=O)OC5)CCC43O)C2)OC(C)C1OC1OC(CO)C(O)C(O)C1O (configuration not stated)	-8.2%[10 µM]
Cc1nc2cc(-c3cccc(F)c3)nn2c(C)c1CCC(=O)NC(C)c1ccccc1 (configuration not stated)	-18.8%
O=C(c1ccccc1)N(C(=O)c1ccccc1)c1ncnc2c1C(c1ccccc1)c1c(ccc3ccccc13)O2 (configuration not stated)	0.0%
O=C(Nc1ccc(O)c(-c2nc3ccccc3o2)c1)c1ccc(-c2cccc(Cl)c2)o1	-11.1%
CC(c1cccs1)N(C)C(=O)c1ccccc1Cl (configuration not stated)	-0.2%[39.2 µM]
O=C(c1ccc(F)cc1)c1cn(Cc2ccccc2)c2cc3c(cc2c1=O)OCO3	-19.9%
Cn1ncc2nc(SCC(=O)Nc3ccc(Br)cc3F)n(Cc3ccccc3)c(=O)c21	-13.6%
Cc1oc(-c2ccc(C(=O)NCc3ccccc3F)cc2)nc1COc1ccccc1	-2.0%
CC(=O)Nc1ccc(C2(C(=O)NCc3cccs3)CCCCC2)cc1	i
COc1cccc(-n2c(=O)[nH]c3cc(Cl)n(-c4ccc(-c5cccc(OC)c5O)cc4)c3c2=O)c1	-16.4%
O=C1CCCCC(C(=O)NCCc2ccncc2)N1 (configuration not stated)	2.1%
O[C@H]1CC[C@@H](Cc2cc(CN3CCCCC3)on2)O[C@@H]1CNCc1cccnc1	-5.6%[39.2 µM]
COc1ccccc1-c1cc(C(=O)N2CCN(c3ncccn3)CC2)nn2cccc12	0.5%

Screening results as filed in PubChem BioAssay.
